From PubChem
Biofilm kill mix: mixture kills Candida albicans biofilm cells | C. albicans biofilm persisters + clotrimazole, fluorescence viability; primary screen in compound mixtures of four per well | inhibition, % at 7.6 µM | 120,000 compounds, 0.02% hits;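 active = inhibition above 30.3% in the primary screen of four-compound pools, then above 30% when the compound was retested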;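 also: compounds exposed to preformed 24 h biofilms for 48 h; the number belongs to the whole pool; some results filed as inactive read as strong as hits; inactives centre near 12; 0% = biofilm with clotrimazole alone and 100% = kill control; retested singly at about 60 µM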
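Probe or stimulus – Clotrimazole 50 µg/mL co-treatment · System – C. albicans biofilms · Schedule – 24 h biofilm formation, then 48 h compound exposure, 37 °C · Evaluation – percent inhibition of biofilm viability · Technique – 2-h Alamar Blue fluorescence, 535/590 nm excitation/emission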
The depositor's hits bear a star. Only part of the results is shown (hit frequency here may not be typical).

Sample of the layout:
Screening COc1ccc(N2CC(C(=O)Nc3cc(C)ccn3)CC2=O)cc1 (stereo unspecified) returned Biofilm kill mix 22.
Cc1cc(C)n(C2CC(=O)N(c3ccc(Cl)c(Cl)c3)C2=O)n1 (stereo unspecified) was read as Biofilm kill mix 21.
`Cc1ccc(/C=C/C(=O)c2ccccc(=O)c2O)cc1C` gave Biofilm kill mix 9.
`COc1cc(C(=O)OCC(=O)NC2CCS(=O)(=O)C2)c([N+](=O)[O-])cc1OC` (stereo unspecified) gave Biofilm kill mix 4.
Nc1ncnc(Sc2ccccc2)c1[N+](=O)[O-] was read as Biofilm kill mix 6.
Screening O=C1CC(c2ccc(F)cc2)CC(O)=C1C=NCCN1CCNCC1 (stereo unspecified) returned Biofilm kill mix 12.
Cc1ccc(-c2noc(-c3ccno3)n2)cc1 was read as Biofilm kill mix 13.
Screening O=C(O)c1cccc(NC(=O)c2cccc(S(=O)(=O)N3CCc4ccccc4C3)c2)c1 returned Biofilm kill mix 17.
Cc1cc(C)nc(/N=C(\N)Nc2ccc(OCc3ccccc3)cc2)n1 was read as Biofilm kill mix 15.
Screening CC(=O)C1=C(C)NC(SCC(N)=O)=C(C#N)C1c1ccco1 (stereo unspecified) returned Biofilm kill mix 7.
For O=C(Nc1ccccc1-c1ccccc1)C(=O)Nc1ccccc1-c1ccccc1 the results were Biofilm kill mix 12.
For O=C1NCCN/C1=C\C(=O)c1ccc(F)cc1 the results were Biofilm kill mix 25.
For N#C/C(=C\c1c(N(Cc2ccccc2)Cc2ccccc2)nc2ccccn2c1=O)C(N)=O the results were Biofilm kill mix 9.

This part in full, from the first entry:
Screening COc1ccc(N2CC(C(=O)Nc3cc(C)ccn3)CC2=O)cc1 (stereo unspecified) returned Biofilm kill mix 22.
Cc1cc(C)n(C2CC(=O)N(c3ccc(Cl)c(Cl)c3)C2=O)n1 (stereo unspecified) was read as Biofilm kill mix 21.
`Cc1ccc(/C=C/C(=O)c2ccccc(=O)c2O)cc1C` gave Biofilm kill mix 9.
`COc1cc(C(=O)OCC(=O)NC2CCS(=O)(=O)C2)c([N+](=O)[O-])cc1OC` (stereo unspecified) gave Biofilm kill mix 4.
Nc1ncnc(Sc2ccccc2)c1[N+](=O)[O-] was read as Biofilm kill mix 6.
Screening O=C1CC(c2ccc(F)cc2)CC(O)=C1C=NCCN1CCNCC1 (stereo unspecified) returned Biofilm kill mix 12.
Cc1ccc(-c2noc(-c3ccno3)n2)cc1 was read as Biofilm kill mix 13.
Screening O=C(O)c1cccc(NC(=O)c2cccc(S(=O)(=O)N3CCc4ccccc4C3)c2)c1 returned Biofilm kill mix 17.
Cc1cc(C)nc(/N=C(\N)Nc2ccc(OCc3ccccc3)cc2)n1 was read as Biofilm kill mix 15.
Screening CC(=O)C1=C(C)NC(SCC(N)=O)=C(C#N)C1c1ccco1 (stereo unspecified) returned Biofilm kill mix 7.
For O=C(Nc1ccccc1-c1ccccc1)C(=O)Nc1ccccc1-c1ccccc1 the results were Biofilm kill mix 12.
For O=C1NCCN/C1=C\C(=O)c1ccc(F)cc1 the results were Biofilm kill mix 25.
For N#C/C(=C\c1c(N(Cc2ccccc2)Cc2ccccc2)nc2ccccn2c1=O)C(N)=O the results were Biofilm kill mix 9.
For COCCn1c(C)cc(C2=NNC(=NC3CC3)SC2)c1C the results were Biofilm kill mix -9.
For CCN(CC)S(=O)(=O)c1ccc(C2=NOC3(C2)N(C)c2ccccc2C3(C)C)cc1 (stereo unspecified) the results were Biofilm kill mix 12.
`CCCCNCC(O)(c1ccc(Cl)cc1)c1ccc(Cl)cc1` gave Biofilm kill mix 19.
`COc1ccc(C2C(C(=O)Nc3cccc(OC)c3)c3ccccc3C(=O)N2C)cc1` (stereo unspecified) gave Biofilm kill mix 11.
`COc1ccc(-c2nn(CCC(=O)O)cc2/C=C2\SC(N)=NC2=O)cc1` gave Biofilm kill mix 21.
O=C(Nc1ccc(C(=O)O)cc1)/C(=C\C=C\c1ccccc1)NC(=O)c1ccc(Br)cc1 was read as Biofilm kill mix 14.
For O=C(O)/C(=C\c1cccs1)c1ccccc1 the results were Biofilm kill mix 28.
`COC(=O)C1=C(C)N(Cc2ccco2)C(=O)/C1=C\c1ccc([N+](=O)[O-])cc1` gave Biofilm kill mix -12.
Screening CCCCN(C)C(=O)c1nc2ccccn2c1CNCCCn1nnc2ccccc21 returned Biofilm kill mix 13.
Screening O=C(CCc1ccccc1)NN1C(=O)C2C3C=CC(C3)C2C1=O (stereo unspecified) returned Biofilm kill mix 10.
CC(C)NC(=O)C1COc2ccccc2O1 (stereo unspecified) was read as Biofilm kill mix 12.
CSC1=NC(C)(C)C=C(/C=C/c2ccc(Cl)cc2Cl)N1 was read as Biofilm kill mix 15.
For CC(=O)O[C@H]1C2OC(=O)C(C)=C2[C@@H]2OC(=O)[C@]3(CCC4OC41C)OC23 (stereo partly specified) the results were Biofilm kill mix 11.
For CSc1ccc(/C=N/N2CCN(Cc3ccccc3Cl)CC2)cc1 the results were Biofilm kill mix 8.
COc1ccc(CCN=C(N)Nc2nc(C)cc(C)n2)cc1 was read as Biofilm kill mix 19.
`CC1CCCC(NC(=O)C2CCN(S(=O)(=O)N3CCCCCC3)CC2)C1C` (stereo unspecified) gave Biofilm kill mix 10.
Cc1ccc(O)c(-c2cc(C(=O)Nc3ccc(S(=O)(=O)Nc4nccc(C)n4)cc3)[nH]n2)c1 was read as Biofilm kill mix 20.
Screening Cc1nc2ccc(C(=O)N3CCN(c4ccccc4)CC3)cc2s1 returned Biofilm kill mix 15.
For O=C(C1Cc2ccccc2CN1C(=O)c1ccccc1)N1CCN(c2ccccc2)CC1 (stereo unspecified) the results were Biofilm kill mix 6.
For O=C1C2C3C=CC(C4CC34)C2C(=O)N1c1ccc2c(c1)OCO2 (stereo unspecified) the results were Biofilm kill mix 14.
Screening CCC(C(=O)OCC(=O)Nc1ccc(Cl)c(S(=O)(=O)N(C)C)c1)c1ccccc1 (stereo unspecified) returned Biofilm kill mix 11.
`C/C(=N\NC(=O)CCc1ccccc1)c1ccc(Br)cc1` gave Biofilm kill mix 14.
O=C(CSC1=Nc2ccccc2C2CC=NN12)Nc1ccc(F)cc1Cl (stereo unspecified) was read as Biofilm kill mix 22.
For Cc1ccc(OC(=O)C2c3ccccc3Oc3ccccc32)cc1C the results were Biofilm kill mix 11.
Screening O=C(NCc1ccccc1)C1=C[C@@H](c2ccc(Br)cc2)C[C@@H](OCCCCO)O1 returned Biofilm kill mix 11.
Cc1cccc2c(=O)cc(C)n(CC(N)=O)c12 was read as Biofilm kill mix 10.
For O=C(Nc1nc(-c2cccs2)c(-c2cccs2)s1)C1(c2ccccc2)CC1 the results were Biofilm kill mix 7.
CCC1(c2ccc(Cl)cc2)NC(=S)N(c2ccccc2)N1 (stereo unspecified) was read as Biofilm kill mix 16.
O=[N+]([O-])c1ccccc1SN(Cc1ccccc1)c1ccccn1 was read as Biofilm kill mix 13.
O=C(/C(=N/N=C/c1ccc(O)c(O)c1O)c1ccccc1)c1ccccc1 was read as Biofilm kill mix 20.
`COC(=O)c1cccc(C23CC4(C2)[C@H](CN(Cc2cccnc2)[C@@H]4c2ccccc2)C3c2ccc(C(F)(F)F)cc2)c1` (stereo partly specified) gave Biofilm kill mix 6.
`Cc1c(Cl)cccc1NC(=S)N1CCOCC1` gave Biofilm kill mix 4.
Screening Cc1cc(C)cc(C(=O)NCC(=O)OCC(=O)Nc2ccc(C)cc2Br)c1 returned Biofilm kill mix 8.
`COc1ccc(C2CCN(CC(=O)N(C)C)CC2O)cc1` (stereo unspecified) gave Biofilm kill mix 1.
For Cc1ccc(NC(=O)/C=C\C(=O)O)c([N+](=O)[O-])c1 the results were Biofilm kill mix -4.
`OCCN(CC#CCn1c2ccccc2c2ccccc21)CCO` gave Biofilm kill mix 25.
For COc1ccc(/C=C/C(=O)O/N=C(\N)c2ccccc2)cc1OC the results were Biofilm kill mix 7.
O=C(CSc1nnc(-c2ccncc2)n1Cc1ccco1)N1c2ccccc2Sc2ccc(Cl)cc21 was read as Biofilm kill mix 16.
COc1ccc2c(C)cc(SCC(=O)Nc3cccnc3Cl)nc2c1 was read as Biofilm kill mix 1.
C=CCN1C(c2ccccc2)=CS/C1=C(/C#N)c1nnc(N2CCOCC2)n1-c1ccccc1 was read as Biofilm kill mix 16.
CCn1nnc2cc(C(=O)O)ccc21 was read as Biofilm kill mix 13.
Cc1occc1C(=O)NN=C1C2CC3CC(C2)CC1C3 was read as Biofilm kill mix 16.
Screening CCn1cc([N+](=O)[O-])c(C(=O)NCc2ccc(Cl)cc2)n1 returned Biofilm kill mix 26.
O=C(c1cccc(Br)c1)N1CCN(S(=O)(=O)N2CCOCC2)CC1 was read as Biofilm kill mix 5.
`COc1cccc(-c2c(C#N)c(SC)nc3cc(C)nn23)c1` gave Biofilm kill mix 17.
For CCN(CC)c1ccc(C(=O)OCC(=O)Nc2ccc3[nH]c(=O)[nH]c3c2)cc1 the results were Biofilm kill mix -10.
Screening O=[N+]([O-])c1cc(S(=O)(=O)N2CCCC2)ccc1N/N=C/c1ccccn1 returned Biofilm kill mix 14.
For COc1ccc(S(=O)(=O)N2CCOCC2)cc1NC(=O)Cc1c(Cl)cccc1Cl the results were Biofilm kill mix 17.
CCOC(=S)SCC(=O)Nc1nc(C)c(C)s1 was read as Biofilm kill mix -21.
CCN(CC)c1ccc(N=Cc2c(C)[nH]c3ccccc23)cc1 was read as Biofilm kill mix 4.
Screening O=C1C(=O)N(Cc2ccccc2)C(=O)N1CCN1C(=O)c2ccccc2C1=O returned Biofilm kill mix -6.
`COc1ccc(/C=N/NC(=S)Nc2ccccc2)cc1` gave Biofilm kill mix 2.
COc1ccccc1Nc1nc(NCC(C)C)nc(N)c1[N+](=O)[O-] was read as Biofilm kill mix 13.
O=C(c1ccccc1)c1cc([N+](=O)[O-])ccc1N1CCCC1 was read as Biofilm kill mix 9.
Screening Cc1cccc(C)c1NC(=S)N(Cc1ccccc1)Cc1cccnc1 returned Biofilm kill mix 14.
For COc1ccc([N+](=O)[O-])cc1N(CC(=O)Nc1ccccc1C(=O)N1CCCC1)S(C)(=O)=O the results were Biofilm kill mix 9.
Cc1ccc(S(=O)(=O)N2CCN(C(=O)CCC(=O)NCc3ccc(F)cc3)CC2)cc1 was read as Biofilm kill mix 11.
For CCc1cccc(CC)c1NC(=S)Nc1ccccc1 the results were Biofilm kill mix 1.
Cc1nn(C)c(C)c1NC(=O)c1ccc(Br)o1 was read as Biofilm kill mix 17.
`O=C(c1ccccc1)c1ccc(COC(=O)c2cnccn2)cc1` gave Biofilm kill mix 20.
Cc1ccc(C(=O)NNC(=O)c2ccccc2-n2cccc2)cc1 was read as Biofilm kill mix 1.
O=C(N[C@@H](Cc1c[nH]c2ccccc12)C(=O)O)c1ccc(Cl)cc1 was read as Biofilm kill mix -10.
Screening CN(CC(=O)Nc1ccc(N2CCOCC2)cc1)CC(=O)Nc1ccccc1C#N returned Biofilm kill mix 6.
Cc1ccc(NC(=O)CC2C(=O)NCCN2C(=S)Nc2ccccc2)c(C)c1 (stereo unspecified) was read as Biofilm kill mix 0.
`CC(=O)Oc1ccc(OC(C)=O)c2c1CC(C)=C(C)C2` gave Biofilm kill mix 20.
CCCCCOC(=O)CCN1C(=O)/C(=C2\SC(=S)N(CCC(=O)OCCCCC)C2=O)SC1=S was read as Biofilm kill mix 20.
C/C=C\C(=O)Nc1cccc(C2=NOC3(C2)C[C@@H](C(N)=O)N(C(=O)COc2ccc(Cl)cc2)C3)c1 (stereo partly specified) was read as Biofilm kill mix 18.
`CCOC(=O)c1sc2ncc([N+](=O)[O-])cc2c1N` gave Biofilm kill mix 19.
For Fc1cc(F)cc(NC(=S)Nc2ccccc2N2CCOCC2)c1 the results were Biofilm kill mix 16.
`CC1(C)[C@H]2CC=C(CN3CCC(N4CCC(C(=O)N5CCCC5)CC4)CC3)[C@@H]1C2` gave Biofilm kill mix 18.
`C/C(=N/OC(=O)c1ccc(Cl)cc1Cl)c1oc(C)nc1C` gave Biofilm kill mix 11.
`CC(C)(C)NC(=O)CSc1nc2ccccc2c(=O)[nH]1` gave Biofilm kill mix 27.
COC(=O)CCC(=O)OC1(C)C(=O)C=C2C=C(C3CC3)N(C(CO)CO)C=C2C1=O (stereo unspecified) was read as Biofilm kill mix 31.
`CCOC(=O)c1oc2ccccc2c1NC(=O)CN1CCOCC1` gave Biofilm kill mix 12.
`CC(C)c1ccc(S(=O)(=O)N2CCN(C(=O)c3ccco3)CC2)cc1` gave Biofilm kill mix 18.
For Oc1oc(-c2cccc3ccccc23)nc1C=NCc1ccccc1 the results were Biofilm kill mix 13.
`O=[N+]([O-])c1ccc2nc(-c3ccc(OC(F)F)cc3)cn2c1` gave Biofilm kill mix 6.
`COCCCNC(=S)Nc1ccc(N2CCCCC2)cc1` gave Biofilm kill mix 5.
Screening COc1ccc(-c2noc(=O)[nH]2)cc1 returned Biofilm kill mix 11.
`Cc1cc(C)cc(C(=O)N(CCc2ccccc2)C2=CC3CCC(C2)N3C)c1` (stereo unspecified) gave Biofilm kill mix 3.
Screening COc1ccc2c(CC(=O)OCC(=O)Nc3ccccc3[N+](=O)[O-])coc2c1 returned Biofilm kill mix 15.
Cc1nn(C)c(NC(=O)c2ccc([N+](=O)[O-])cc2)c1Cl was read as Biofilm kill mix 13.
`COc1ccc(C2CC(=O)c3cc(OC)c(OC)cc32)cc1OC` (stereo unspecified) gave Biofilm kill mix 17.
Screening CC(C(=O)NC1CCCC1)N(c1ccc(Oc2ccccc2)cc1)S(C)(=O)=O (stereo unspecified) returned Biofilm kill mix -4.
Screening COC(=O)CCC(=O)Nc1nccs1 returned Biofilm kill mix 13.
For CSc1ccc(NC(=O)NCc2ccccc2)cc1 the results were Biofilm kill mix 21.
Screening O=C(O)c1cccc(N(CCO)CCO)c1 returned Biofilm kill mix 19.
